# Screens: PubChem BioAssay, Broad Institute
# Vaccinia stage = blocks a specific stage of Vaccinia orthopoxvirus infection. Vaccinia-infected cells, mCherry/Venus stage reporter fluorescence; stronger effect = lower value; some inactives read as strong as hits. activity change (mCherry), % (no concentration beside the values). 89,000 compounds, 0.01% hits;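 active = mCherry past -33% and 40 or more points under the early reporter, replicates agreeing; inconclusive = past -33% without that gap or agreement; tested in A549 cells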;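 also: scaled between vehicle wells and reference inhibitor wells; 23 nL library stock went into each well; one replicate is shown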
# Vaccinia stage Venus = further read-out of Vaccinia stage, marked with its call; activity change (Venus), %; measured here: Venus reporter, other viral stage;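 negative = less Venus signal; first of two replicates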
# The depositor's hits bear a star; ? = inconclusive; nt = no result given. Some of the compounds tested, so the mix of outcomes need not match the whole.
canonical_smiles	Vaccinia stage Venus	Vaccinia stage
CCCC(=O)N1CCC2(CC1)CN(C(=O)CC1CC1)[C@@H](CO)c1c2c2ccc(OC)cc2n1C	0	0
Cc1ccccc1S(=O)(=O)NCC[C@H]1CC[C@H](NC(=O)C2CCC2)[C@@H](CO)O1	6	-1
Cc1noc(C)c1NC(=O)Nc1cccc2c1O[C@@H](CN(C)Cc1ccc(-c3ccccc3)cc1)[C@@H](C)CN([C@H](C)CO)C2=O	-7	-12
Cc1ccc(S(=O)(=O)N(C)C[C@@H]2OCCCC[C@@H](C)Oc3ccc(NC(=O)NC4CCCCC4)cc3C(=O)N([C@@H](C)CO)C[C@H]2C)cc1	-8	-28
C[C@H](CO)N1C[C@H](C)[C@@H](CN(C)C(=O)c2ccncc2)Oc2ncc(-c3ccncc3)cc2C1=O	3	18
C[C@H]1CN([C@@H](C)CO)C(=O)c2cc(C3=CCCCC3)cnc2O[C@@H]1CN(C)C(=O)c1ccccn1	4	24
O=C(C[C@@H]1CC[C@@H]2[C@H](COC[C@H](O)CN2C(=O)c2ccc(F)cc2)O1)N1CCOCC1	13	10
COc1ccc(S(=O)(=O)N(C)C[C@H]2OCCCC[C@H](C)Oc3ccc(NC(=O)Nc4c(C)noc4C)cc3C(=O)N([C@@H](C)CO)C[C@@H]2C)cc1	4	5
Cn1cnc(CCNC(=O)C[C@H]2CC[C@H]3[C@@H](COC[C@H](O)CN3C(=O)Nc3ccc(F)cc3)O2)c1	1	0
C[C@@H]1CN([C@H](C)CO)C(=O)Cc2cc(NC(=O)Cc3ccccc3)ccc2O[C@H]1CN(C)C(=O)Nc1cccc2ccccc12	12	53
C[C@H](CO)N1C[C@H](C)[C@@H](CN(C)C(=O)Nc2ccc(C(F)(F)F)cc2)Oc2ccc(NC(=O)C3CCCCC3)cc2CC1=O	-7	-25
O=C(C1CCOCC1)N1CC(=O)N2[C@H](CO)[C@H](c3ccc(C#CC4CCCC4)cc3)[C@@H]2C1	-11	-20
CO[C@H]1CN(C)C(=O)c2cc(NC(=O)C3CCC3)ccc2OC[C@H](C)N(Cc2nccs2)C[C@@H]1C	-8	-3
N#C[C@H]1[C@H](c2ccc(-c3cccc(F)c3)cc2)[C@H](CO)N1C(=O)c1cccnc1	-8	4
C[C@@H]1CCCCO[C@H](CN(C)Cc2ccc(C(F)(F)F)cc2)[C@H](C)CN([C@H](C)CO)C(=O)c2cc(NC(=O)c3ccccc3)ccc2O1	nt	?
C[C@@H]1CN([C@@H](C)CO)C(=O)c2cccc(NC(=O)C3CC3)c2O[C@@H]1CN(C)Cc1ccc(C(=O)O)cc1	16	10
CO[C@H]1CN(C)C(=O)c2cc(NS(=O)(=O)c3cn(C)cn3)ccc2OC[C@@H](C)NC[C@@H]1C	1	11
COc1ccc(NC(=O)Nc2ccc3c(c2)CC(=O)N([C@H](C)CO)C[C@@H](C)[C@@H](CN(C)S(=O)(=O)c2cn(C)cn2)O3)cc1	19	14
O=C(CN1CCOCC1)N[C@H]1CC[C@H](CCNC(=O)C2CCC2)O[C@H]1CO	6	-5
CO[C@H]1CN(C)C(=O)c2ccc(NS(=O)(=O)c3cccc(C)c3)cc2OC[C@@H](C)NC[C@H]1C	1	3
CNC(=O)C[C@@H]1CC[C@H]2[C@H](COc3ccc(NS(=O)(=O)c4ccccc4C)cc3C(=O)N2C)O1	-13	0
CO[C@H]1CN(C)C(=O)c2ccc(NS(=O)(=O)c3cn(C)cn3)cc2OC[C@H](C)N(CC2CC2)C[C@H]1C	1	9
C[C@H](CO)N1C[C@H](C)[C@H](CN(C)S(=O)(=O)c2ccc(Cl)cc2)Oc2c(NS(C)(=O)=O)cccc2C1=O	12	20
C[C@H]1CN([C@@H](C)CO)C(=O)c2cc(NS(=O)(=O)c3ccccc3)ccc2O[C@@H]1CN(C)S(C)(=O)=O	6	11
COc1ccc(NC(=O)Nc2ccc3c(c2)CC(=O)N([C@H](C)CO)C[C@@H](C)[C@H](CN(C)S(=O)(=O)c2c(C)noc2C)O3)cc1	21	20
C[C@H](CO)N1C[C@H](C)[C@@H](CN(C)Cc2ccncc2)Oc2ncc(C#CC3CC3)cc2C1=O	3	10
CN(C)C(=O)c1cccc(-c2ccc3c(c2)[C@H]2[C@H](CCN2C(=O)C2CCC2)[C@@H](CO)N3)c1	nt	?
C[C@@H]1CCCCO[C@@H](CN(C)C(=O)Nc2ccc(F)cc2)[C@@H](C)CN([C@@H](C)CO)C(=O)c2cc(NC(=O)Nc3ccccc3)ccc2O1	0	6
CNC[C@H]1OCCCC[C@@H](C)Oc2ccc(NC(=O)Nc3ccc(F)cc3)cc2C(=O)N([C@@H](C)CO)C[C@H]1C	11	-7
C[C@H](CO)N1C[C@H](C)[C@@H](CN(C)CC2CC2)Oc2c(NS(=O)(=O)c3cccs3)cccc2C1=O	15	13
COCC(=O)Nc1ccc2c(c1)OC[C@@H](C)N(C(=O)COC)C[C@@H](C)[C@H](OC)CN(C)C2=O	17	21
CCCC(=O)Nc1ccc2c(c1)OC[C@@H](C)N(C(=O)c1cnccn1)C[C@H](C)[C@H](OC)CN(C)C2=O	7	10
CCNC(=O)C[C@@H]1CC[C@@H]2[C@@H](COc3ccc(NC(=O)Nc4ccccc4Cl)cc3C(=O)N2C)O1	1	3
CCS(=O)(=O)Nc1ccc2c(c1)C(=O)N(C)C[C@H](OC)[C@@H](C)CN(C(=O)C1CC1)[C@H](C)CO2	11	8
Cc1noc(C)c1NC(=O)Nc1ccc2c(c1)C(=O)N([C@@H](C)CO)C[C@H](C)[C@@H](CN(C)Cc1ccc(C(F)(F)F)cc1)O2	7	13
Cc1noc(C)c1NC(=O)Nc1cccc2c1O[C@@H](CN(C)S(=O)(=O)c1ccc(Cl)cc1)[C@H](C)CN([C@@H](C)CO)C2=O	2	7
CC(=O)N1[C@@H](CO)[C@@H]2c3ccccc3N(C(=O)c3ccccc3)C[C@@H]21	7	1
COc1ccc2c3c([nH]c2c1)[C@H](CO)N(S(=O)(=O)c1cn(C)cn1)CC31CCN(CC2CCCCC2)CC1	-16	-30
COc1ccc(C#Cc2ccc([C@H]3[C@@H](CO)N4C(=O)CN(C(=O)C5CCOCC5)C[C@@H]34)cc2)cc1	-9	-1
C[C@@H]1CN([C@H](C)CO)C(=O)Cc2cc(NC(=O)CCN3CCOCC3)ccc2O[C@@H]1CN(C)C(=O)Nc1cccc2ccccc12	13	9
N#C[C@@H]1[C@@H](c2ccc(-c3cccc(F)c3)cc2)[C@H](CO)N1S(=O)(=O)c1cccc(F)c1	7	-9
CO[C@H]1CN(C)C(=O)c2ccc(NC(C)=O)cc2OC[C@@H](C)N(C(=O)c2ccccc2)C[C@H]1C	13	9
O=C(C[C@H]1CC[C@H](NC(=O)c2ccc3c(c2)OCO3)[C@H](CO)O1)NCc1ccc(F)cc1	9	7
CO[C@H]1CN(C)C(=O)c2cc(NC(=O)C3CCC3)ccc2OC[C@@H](C)N(CC2CCCCC2)C[C@H]1C	5	-5
COc1ccc(C#Cc2ccc3c(c2)[C@H]2[C@H](CCN2S(=O)(=O)c2ccc(OC)cc2)[C@H](CO)N3C)cc1	2	13
O=C(Nc1ccc(-c2ccccc2)cc1)[C@H]1[C@H](CO)[C@H]2Cn3c(cccc3=O)[C@@H]1N2Cc1ccccc1	nt	?
C[C@H]1CN([C@@H](C)CO)C(=O)CCCn2nncc2CO[C@@H]1CN(C)S(=O)(=O)c1ccc(Cl)cc1	7	5
COCC(=O)Nc1ccc2c(c1)C(=O)N(C)[C@@H]1CC[C@@H](CC(=O)NCC3CCCCC3)O[C@H]1CO2	2	4
CCCNC(=O)N[C@H]1C=C[C@H](CC(=O)NC2CCC2)O[C@@H]1CO	5	13
CN(C)CC(=O)N[C@H]1C=C[C@H](CC(=O)NCCN2CCCCC2)O[C@@H]1CO	8	1
C[C@H](O)C#Cc1ccc([C@H]2[C@@H](CO)N3CCCCN(C(=O)c4ccncc4)C[C@H]23)cc1	18	26
Cc1noc(C)c1S(=O)(=O)N(C)C[C@H]1OCCCC[C@@H](C)Oc2ccc(NS(C)(=O)=O)cc2C(=O)N([C@@H](C)CO)C[C@@H]1C	-1	16
CN1CCCCN2[C@H](C1)[C@@H](c1ccc(-c3cccnc3)cc1)[C@@H]2CO	-7	28
CC(=O)NC[C@H]1[C@@H](c2ccc(C3=CCCCC3)cc2)[C@@H](CO)N1C(=O)C1CCC1	8	11
O=C(C[C@@H]1CC[C@@H]2[C@H](COC[C@@H](O)CN2C(=O)c2ccncc2)O1)NC1Cc2ccccc2C1	17	14
Cc1ccc(CN2CC(=O)N3[C@H](C2)[C@H](c2ccc(Br)cc2)[C@@H]3CO)cc1	11	29
COc1ccc2c3c([nH]c2c1)[C@H](CO)N(Cc1ccncc1)CC31CCN(CC2CCOCC2)CC1	5	6
COC(=O)[C@H]1[C@H](CO)[C@H]2Cn3c(ccc(-c4ccncc4)c3=O)[C@H]2N1Cc1ccccc1F	13	4
CCc1sc(N2[C@@H](C#N)[C@@H](c3ccccc3-c3ccc(F)cc3)[C@@H]2CO)nc1C	9	7
C[C@@H]1CN([C@@H](C)CO)C(=O)c2cc(C#CC3CC3)cnc2O[C@@H]1CN(C)C(=O)Cc1ccccn1	6	9

# Sorted by number of heavy atoms (smallest number first): 3 of the compounds above.
canonical_smiles	Vaccinia stage Venus	Vaccinia stage
Cc1ccc(CN2CC(=O)N3[C@H](C2)[C@H](c2ccc(Br)cc2)[C@@H]3CO)cc1	11	29
CO[C@H]1CN(C)C(=O)c2ccc(NC(C)=O)cc2OC[C@@H](C)N(C(=O)c2ccccc2)C[C@H]1C	13	9
O=C(Nc1ccc(-c2ccccc2)cc1)[C@H]1[C@H](CO)[C@H]2Cn3c(cccc3=O)[C@@H]1N2Cc1ccccc1	nt	?

# Next records follow:
canonical_smiles	Vaccinia stage Venus	Vaccinia stage
O=C(C[C@@H]1C=C[C@H](NC(=O)CN2CCOCC2)[C@H](CO)O1)NCc1cccc(F)c1	13	5
COC(=O)[C@@H]1[C@@H](CO)[C@@H]2Cn3c(cccc3=O)[C@@H]2N1C(=O)C1CCCCC1	13	17
CCCNC(=O)N1CC2(C1)[C@H](c1ccccc1)[C@@H](CO)N2CC1CCCC1	6	9
CCCN1[C@@H]2Cn3c(ccc(-c4ccc(F)cc4)c3=O)[C@H]1[C@@H](C(=O)OC)[C@@H]2CO	-9	-7
C[C@@H]1CN([C@@H](C)CO)C(=O)c2ccccc2-c2ccccc2CO[C@H]1CN(C)Cc1ccc(C(=O)O)cc1	14	17
CC(C)NC(=O)Nc1cccc2c1O[C@H](CN(C)C(=O)Nc1ccc3c(c1)OCO3)[C@@H](C)CN([C@H](C)CO)C2=O	6	10
C[C@@H](O)C#Cc1cnc2c(c1)C(=O)N([C@@H](C)CO)C[C@H](C)[C@@H](CN(C)C(=O)CC1CC1)O2	-1	0
CCC(=O)Nc1ccc2c(c1)C(=O)N(C)C[C@H](OC)[C@H](C)CN(CC1CCCCC1)[C@H](C)CO2	3	0
C[C@@H]1CN([C@H](C)CO)C(=O)c2cc(NS(C)(=O)=O)ccc2O[C@H]1CN(C)Cc1ccc(C(F)(F)F)cc1	-18	-15
C[C@H](CO)N1C[C@H](C)[C@@H](CN(C)S(=O)(=O)c2ccsc2)OCc2ccccc2-c2c(n(C)c3ccccc23)C1=O	1	10
O=C(C[C@@H]1CC[C@H]2[C@@H](COC[C@H](O)CN2Cc2ccc(Oc3ccccc3)cc2)O1)N1CCOCC1	-13	-11
CC(C)CC#Cc1cnc2c(c1)C(=O)N([C@@H](C)CO)C[C@H](C)[C@@H](CN(C)S(C)(=O)=O)O2	3	14
CCS(=O)(=O)Nc1ccc2c(c1)C(=O)N(C)[C@H]1CC[C@@H](CC(=O)NCc3ccccc3F)O[C@H]1CO2	-1	-1
C[C@@H]1CCCCO[C@@H](CN(C)S(=O)(=O)c2ccccc2)[C@H](C)CN([C@@H](C)CO)C(=O)c2cc(NS(=O)(=O)c3ccccc3)ccc2O1	nt	?
COCC(=O)N1C[C@H](C)[C@H](OC)CN(C)C(=O)c2cc(NC(=O)c3ccc(OC)cc3)ccc2OC[C@H]1C	8	17
CC(C)NC(=O)N(C)C[C@@H]1Oc2ccc(NC(=O)Nc3ccc(F)cc3)cc2CC(=O)N([C@@H](C)CO)C[C@H]1C	0	-6
C[C@@H]1CN([C@@H](C)CO)C(=O)Cc2cc(NC(=O)Cn3cnnn3)ccc2O[C@H]1CN(C)Cc1ccc(Oc2ccccc2)cc1	-2	-10
C[C@@H]1CN([C@H](C)CO)C(=O)c2cccc(NC(=O)Nc3ccc4c(c3)OCO4)c2O[C@@H]1CN(C)C(=O)Nc1cccc2ccccc12	11	7
CNC[C@H]1Oc2c(NS(=O)(=O)c3ccc(Cl)cc3)cccc2C(=O)N([C@@H](C)CO)C[C@H]1C	-2	2
C[C@@H]1CN([C@H](C)CO)C(=O)Cc2cc(NC(=O)CCCCCC(=O)Nc3ccccc3N)ccc2O[C@@H]1CN(C)Cc1ccc(Oc2ccccc2)cc1	nt	?

# Compound profiles, as listed above:
# COC(=O)[C@@H]1[C@@H](CO)[C@@H]2Cn3c(cccc3=O)[C@@H]2N1C(=O)C1CCCCC1 across the screens: Vaccinia stage Venus: 13; Vaccinia stage: 17
# CCCN1[C@@H]2Cn3c(ccc(-c4ccc(F)cc4)c3=O)[C@H]1[C@@H](C(=O)OC)[C@@H]2CO across the screens: Vaccinia stage Venus: -9; Vaccinia stage: -7
